NPYLR7 agonist – agonists of mosquito NPYLR7 receptor, primary screen, cell-based, Aedes aegypti, calcium fluorescence, mosquito biting behavior. HEK293T NPYLR7/Galpha15, GCaMP6s calcium fluorescence. activation, % at 10 µM. Aedes aegypti neuropeptide Y-like receptor 7 (NPYLR7). AID 1259423, 2018. 270,000 tested, 0.15% active; in the data active = activation above about 40%;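 note: 0% = vehicle and 100% = reference agonist at the receptor; some compounds past the cut are filed as inactive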
NPYLR7 agonist max-min – recorded beside NPYLR7 agonist, whose call it bears; activation, %; measured here: Max-Min RFU normalised activation; some inactives read as strong as hits;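 span of the calcium signal over five minutes; 0% = vehicle and 100% = native peptide agonist; compound fluorescence can raise it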
Starred values were filed as active, the others as inactive; & = joins results of further samples. Only part of the results is shown, so the mix of outcomes need not match the whole.

The first 13 entries, ahead of the listing:
Results for CC1(C)C2CCC1(CS(=O)(=O)n1cnc3ccccc31)C(=O)C2 (stereo unspecified) ?
NPYLR7 agonist: 2; NPYLR7 agonist max-min: 1

Results for CN(Cc1nccn1C)C(=O)c1ccc(OC(C)(C)C)cc1 ?
NPYLR7 agonist: -1; NPYLR7 agonist max-min: -2

How did O=C1CCCN1CCN1CCOC(Cc2ccccc2Cl)C1 (stereo unspecified) do in these assays?
NPYLR7 agonist: 0; NPYLR7 agonist max-min: -3

How did CC(=O)Nc1ccc(NC(=O)NC(C)C(C)(C)C)c(Cl)c1 (stereo unspecified) do in these assays?
NPYLR7 agonist: -5; NPYLR7 agonist max-min: -4

Results for COC(=O)c1ccc(NC(=O)N2CC(=O)N3CCc4c(F)cccc4C3C2)cc1 (stereo unspecified) ?
NPYLR7 agonist: -1; NPYLR7 agonist max-min: 1

How did CC(C)c1nnc(CS(=O)c2ccc3ccccc3c2)o1 (stereo unspecified) do in these assays?
NPYLR7 agonist: 3; NPYLR7 agonist max-min: -6

Results for COC1CCN(C(=O)c2cc(Cc3n[nH]c(=O)c4ccccc34)ccc2F)CC1 ?
NPYLR7 agonist: 8; NPYLR7 agonist max-min: -3

Results for CCC(Sc1ncc(S(=O)(=O)c2ccc(C)cc2)c(=O)[nH]1)C(=O)Nc1ccc(C(C)C)cc1 (stereo unspecified) ?
NPYLR7 agonist: 4; NPYLR7 agonist max-min: 3

How did COc1cc2nc(NC(=O)c3ccccc3[N+](=O)[O-])sc2cc1OC do in these assays?
NPYLR7 agonist: -6; NPYLR7 agonist max-min: -6

How did C#CCn1c(O)c(N=NC(=O)CNC(=O)c2ccccc2F)c2ccccc21 do in these assays?
NPYLR7 agonist: -5; NPYLR7 agonist max-min: -8

How did O=C(Nc1cccc(Oc2ccccc2)c1)c1cccnc1Nc1cccc(C(F)(F)F)c1 do in these assays?
NPYLR7 agonist: 0; NPYLR7 agonist max-min: -2

Results for CCOc1ccc(NC(=O)NC/C=C(\C)CCC=C(C)C)cc1 ?
NPYLR7 agonist: -2; NPYLR7 agonist max-min: -8

How did O=C(COc1ccc(Cl)cc1Cl)N=Nc1c(O)[nH]c2ccc(F)cc12 do in these assays?
NPYLR7 agonist: -3; NPYLR7 agonist max-min: 5

The listing, previewed entries included:
Results for CC1(C)C2CCC1(CS(=O)(=O)n1cnc3ccccc31)C(=O)C2 (stereo unspecified) ?
NPYLR7 agonist: 2; NPYLR7 agonist max-min: 1

Results for CN(Cc1nccn1C)C(=O)c1ccc(OC(C)(C)C)cc1 ?
NPYLR7 agonist: -1; NPYLR7 agonist max-min: -2

How did O=C1CCCN1CCN1CCOC(Cc2ccccc2Cl)C1 (stereo unspecified) do in these assays?
NPYLR7 agonist: 0; NPYLR7 agonist max-min: -3

How did CC(=O)Nc1ccc(NC(=O)NC(C)C(C)(C)C)c(Cl)c1 (stereo unspecified) do in these assays?
NPYLR7 agonist: -5; NPYLR7 agonist max-min: -4

Results for COC(=O)c1ccc(NC(=O)N2CC(=O)N3CCc4c(F)cccc4C3C2)cc1 (stereo unspecified) ?
NPYLR7 agonist: -1; NPYLR7 agonist max-min: 1

How did CC(C)c1nnc(CS(=O)c2ccc3ccccc3c2)o1 (stereo unspecified) do in these assays?
NPYLR7 agonist: 3; NPYLR7 agonist max-min: -6

Results for COC1CCN(C(=O)c2cc(Cc3n[nH]c(=O)c4ccccc34)ccc2F)CC1 ?
NPYLR7 agonist: 8; NPYLR7 agonist max-min: -3

Results for CCC(Sc1ncc(S(=O)(=O)c2ccc(C)cc2)c(=O)[nH]1)C(=O)Nc1ccc(C(C)C)cc1 (stereo unspecified) ?
NPYLR7 agonist: 4; NPYLR7 agonist max-min: 3

How did COc1cc2nc(NC(=O)c3ccccc3[N+](=O)[O-])sc2cc1OC do in these assays?
NPYLR7 agonist: -6; NPYLR7 agonist max-min: -6

How did C#CCn1c(O)c(N=NC(=O)CNC(=O)c2ccccc2F)c2ccccc21 do in these assays?
NPYLR7 agonist: -5; NPYLR7 agonist max-min: -8

How did O=C(Nc1cccc(Oc2ccccc2)c1)c1cccnc1Nc1cccc(C(F)(F)F)c1 do in these assays?
NPYLR7 agonist: 0; NPYLR7 agonist max-min: -2

Results for CCOc1ccc(NC(=O)NC/C=C(\C)CCC=C(C)C)cc1 ?
NPYLR7 agonist: -2; NPYLR7 agonist max-min: -8

How did O=C(COc1ccc(Cl)cc1Cl)N=Nc1c(O)[nH]c2ccc(F)cc12 do in these assays?
NPYLR7 agonist: -3; NPYLR7 agonist max-min: 5

How did CCOC(=O)c1cn[nH]c1S(=O)(=O)Nc1ccccc1OC do in these assays?
NPYLR7 agonist: -2; NPYLR7 agonist max-min: -6

How did CCOC(=O)c1ccccc1NC(=O)CSc1ccc2nc(-c3ccc(OC)cc3)cn2n1 do in these assays?
NPYLR7 agonist: 5; NPYLR7 agonist max-min: 0

How did CCc1cc(N2CCN(c3ccc(OC)cc3)CC2)nc(SCc2ccc(C(=O)NCCc3ccccn3)o2)n1 do in these assays?
NPYLR7 agonist: -7; NPYLR7 agonist max-min: -5

Results for CCOCCCn1c(SCc2ccc(OC(C)=O)cc2)nc2cc(S(=O)(=O)N3CCOCC3)ccc21 ?
NPYLR7 agonist: 16; NPYLR7 agonist max-min: 10

What do the screens show for `O=C(c1ccc(-n2ccc(-c3cccnc3)n2)cc1)C1CC1`?
NPYLR7 agonist: 19; NPYLR7 agonist max-min: 7

What do the screens show for `COc1cc(Cl)cc(CN2CCCC(CO)(Cc3ccccc3)C2)c1OC` (stereo unspecified)?
NPYLR7 agonist: 18; NPYLR7 agonist max-min: 6

How did Cc1cc(C)c(C)c(OCc2nc(C(=O)Nc3ccc(F)cc3)cs2)c1 do in these assays?
NPYLR7 agonist: -3; NPYLR7 agonist max-min: 3

What do the screens show for `CN1CCC2(CC1)Oc1ccccc1C1CC(c3ccc4c(c3)OCCO4)=NN12` (stereo unspecified)?
NPYLR7 agonist: 3; NPYLR7 agonist max-min: 3

How did CC(C)COc1nc(-c2ccc3c(c2)OCO3)n(-c2ccc(NC(=O)CSc3ccccc3)cc2)n1 do in these assays?
NPYLR7 agonist: 18; NPYLR7 agonist max-min: 15

Results for COCCCN(CC(=O)N(CCc1ccccc1)Cc1ccc(C)o1)C(=O)Nc1ccccc1 ?
NPYLR7 agonist: -13; NPYLR7 agonist max-min: -19

How did Cc1cc(=O)n2nc(NCc3cc(-c4ccccc4)no3)sc2n1 do in these assays?
NPYLR7 agonist: 10; NPYLR7 agonist max-min: 7

What do the screens show for `Cc1ccc(C(NC(=O)C2CCN(Cc3cccc(Cl)c3)CC2)c2ccccn2)cc1` (stereo unspecified)?
NPYLR7 agonist: -7; NPYLR7 agonist max-min: 0

How did Cc1noc(-c2cccc(F)c2)c1C(=O)NCc1ccccn1 do in these assays?
NPYLR7 agonist: 6; NPYLR7 agonist max-min: 13

Results for C=CCO[C@@H]1CCN2C(=O)CNC(=O)[C@@H]2C1 ?
NPYLR7 agonist: -8; NPYLR7 agonist max-min: -14

How did CC(C)(C)CNC(=O)CN1Cc2ccc(Nc3cccc(F)c3)nc2C1=O do in these assays?
NPYLR7 agonist: 6; NPYLR7 agonist max-min: 1

Results for O=C(CSc1ncnc2c1oc1ccccc12)N1CCCc2ccccc21 ?
NPYLR7 agonist: -7; NPYLR7 agonist max-min: -7

Results for CCN(CC)C(=O)Oc1ccc2c(ccn2Cc2ccccc2Cl)c1NC(=O)C(Cl)(Cl)Cl ?
NPYLR7 agonist: 0; NPYLR7 agonist max-min: 7

How did C=CCC(NC(=O)c1ccc(OC(F)F)c(OC)c1)c1ccncc1 (stereo unspecified) do in these assays?
NPYLR7 agonist: 14; NPYLR7 agonist max-min: 12

How did CNC(=O)c1cc2c(s1)CCN(Cc1cc3n(n1)CCNC3)C2 do in these assays?
NPYLR7 agonist: 21; NPYLR7 agonist max-min: 15

How did Cc1ccsc1CNn1nnnc1N do in these assays?
NPYLR7 agonist: -13; NPYLR7 agonist max-min: -20

Results for O=C(c1ccc(-n2cncn2)cc1)N1CCN(S(=O)(=O)c2cc(Cl)ccc2Cl)CC1 ?
NPYLR7 agonist: 30; NPYLR7 agonist max-min: 21

Results for COc1ccc(-n2c(SCC(=O)NCC3CCCO3)nc3c(c2=O)SC(C)C3)cc1 (stereo unspecified) ?
NPYLR7 agonist: 2; NPYLR7 agonist max-min: 1

Results for Cc1ccccc1Nc1nc(NCCCO)nc2c1cnn2-c1ccccc1 ?
NPYLR7 agonist: -1; NPYLR7 agonist max-min: 0

What do the screens show for `CC(C)C(=O)Nc1ccc2oc(-c3ccncc3)nc2c1`?
NPYLR7 agonist: 21; NPYLR7 agonist max-min: 28

How did COc1ccccc1C(=O)Nc1nnc(SCc2ccc(C(C)C)cc2)s1 do in these assays?
NPYLR7 agonist: 5; NPYLR7 agonist max-min: 5

What do the screens show for `COc1cc(C(=O)N2CCOC(COc3ccc(C)cc3)C2)cc(Cl)n1` (stereo unspecified)?
NPYLR7 agonist: 2; NPYLR7 agonist max-min: -6

What do the screens show for `C=CCn1cc(CN2CCC(Oc3ncccn3)CC2)c(C)n1`?
NPYLR7 agonist: 11; NPYLR7 agonist max-min: 0

What do the screens show for `COC(=O)c1ccc2c(c1)C1CC(C)(O2)N(c2ccccc2)C(=O)N1` (stereo unspecified)?
NPYLR7 agonist: -1; NPYLR7 agonist max-min: 6

Results for O=C(O)c1cc2c(F)ccc(Br)c2[nH]1 ?
NPYLR7 agonist: 9; NPYLR7 agonist max-min: 3

Results for COc1cc(OC)cc(-c2nn(-c3cc(C)ccc3C)c(OC(C)=O)c2-c2ccc(NC(=O)c3cccc(Cl)c3)cc2)c1 ?
NPYLR7 agonist: -7; NPYLR7 agonist max-min: -1

What do the screens show for `COc1ccc(CCN(C)C(=O)c2cc(-c3ccccc3Cl)nc3cc(C(C)(C)C)nn23)cc1OC`?
NPYLR7 agonist: 11; NPYLR7 agonist max-min: 14

What do the screens show for `CCC(=O)Nc1ccc(C(=O)NCCNS(=O)(=O)c2ccc(Cl)c(Cl)c2)cc1`?
NPYLR7 agonist: -7; NPYLR7 agonist max-min: -8

How did C#CCOCC(O)CN(Cc1ccc(F)cc1)Cc1cccc(OC)c1 (stereo unspecified) do in these assays?
NPYLR7 agonist: 12; NPYLR7 agonist max-min: 26

How did CCOC(=O)c1cc2cc3ccccc3cc2oc1=O do in these assays?
NPYLR7 agonist: 9; NPYLR7 agonist max-min: 3

Results for Fc1ccc(-c2cc3ncnc(NCc4ccc5c(c4)OCO5)c3s2)cc1 ?
NPYLR7 agonist: 2; NPYLR7 agonist max-min: 0

What do the screens show for `O=C(Cc1ccccc1O)N1CCCC(Nc2ccc(F)c(F)c2)C1` (stereo unspecified)?
NPYLR7 agonist: 4; NPYLR7 agonist max-min: 16

Results for O=C(CCl)N1CCN(c2cccc(Cl)c2)CC1 ?
NPYLR7 agonist: 0; NPYLR7 agonist max-min: -5

What do the screens show for `Nc1ccc2c(Cl)cc(Cl)cc2n1`?
NPYLR7 agonist: 0; NPYLR7 agonist max-min: 0

Results for Cc1cnc(C(=O)NC2CC(=O)N(CCCc3ccccc3)C2)cn1 (stereo unspecified) ?
NPYLR7 agonist: 17; NPYLR7 agonist max-min: 11

What do the screens show for `Fc1ccc(-c2nc(-c3cccnc3)no2)cc1`?
NPYLR7 agonist: -10; NPYLR7 agonist max-min: -16

Results for CC(=O)c1ccc(OCC(=O)N2C[C@H]3CC=C(C)C[C@H]3C2)cc1 ?
NPYLR7 agonist: -2; NPYLR7 agonist max-min: -6

How did CCC1CCC(C(=O)NCC(=O)N2CCCC3(CCNC3)C2)CC1 (stereo unspecified) do in these assays?
NPYLR7 agonist: -1; NPYLR7 agonist max-min: -4

Results for OC(COCC1COc2ccccc2O1)CN1CCN(c2ccccc2)CC1 (stereo unspecified) ?
NPYLR7 agonist: 1; NPYLR7 agonist max-min: 15

Results for Cc1cc(OCc2nnc3n2-c2ccccc2SC3)ccc1Cl ?
NPYLR7 agonist: -5; NPYLR7 agonist max-min: -6

Results for FC(F)(F)C1=NCCN=C(c2ccc(Br)cc2)C1 ?
NPYLR7 agonist: 17; NPYLR7 agonist max-min: 8

What do the screens show for `CCOC(=O)c1ccccc1NC(=O)CN1CCC(Cn2cnc3ccccc32)CC1`?
NPYLR7 agonist: -1; NPYLR7 agonist max-min: -3

Results for O=C(Nc1ccon1)c1cn(Cc2ccccc2)nc1OCc1ccccc1 ?
NPYLR7 agonist: 17; NPYLR7 agonist max-min: 8

2 records picked at random from those above, as already listed:
How did CC(=O)Nc1ccc(NC(=O)NC(C)C(C)(C)C)c(Cl)c1 (stereo unspecified) do in these assays?
NPYLR7 agonist: -5; NPYLR7 agonist max-min: -4

What do the screens show for `O=C(Cc1ccccc1O)N1CCCC(Nc2ccc(F)c(F)c2)C1` (stereo unspecified)?
NPYLR7 agonist: 4; NPYLR7 agonist max-min: 16

Additional results:
How did O=C1N(Cc2cccnc2)CCCC12CCN(Cc1ccc(Cl)s1)C2 (stereo unspecified) do in these assays?
NPYLR7 agonist: 3; NPYLR7 agonist max-min: 2

How did O=C(Nc1nnc(COc2ccccc2F)s1)C(F)(F)F do in these assays?
NPYLR7 agonist: -10; NPYLR7 agonist max-min: -17

What do the screens show for `CC(=O)NCc1ccc(C(=O)NC(C)c2cc3ccccc3o2)cc1` (stereo unspecified)?
NPYLR7 agonist: 9; NPYLR7 agonist max-min: 1

What do the screens show for `N#Cc1c(N)n(-c2ccc(O)cc2)c2nc3ccccc3nc12`?
NPYLR7 agonist: 9&-1; NPYLR7 agonist max-min: 14&-4

How did CCOc1cccc(/C=C/c2ncc(C(=O)NC)s2)c1 do in these assays?
NPYLR7 agonist: 5; NPYLR7 agonist max-min: 4

Results for COc1ccccc1-n1c(Cc2ccccc2)nnc1SCc1nc(C(=O)N2CC3(C)CC2CC(C)(C)C3)cs1 (stereo unspecified) ?
NPYLR7 agonist: -5; NPYLR7 agonist max-min: 3

Source: PubChem
